TRPV1 potentiator – human TRPV1 potentiation; TRPV1-expressing cells, Fluo-8 calcium influx, capsaicin EC20 potentiation; host cell line not named in the record; control for the full effect not named in the record; potentiation, % at 8.33 µM; actives 0.02% (n = 320,000); active means potentiation above 80%; inconclusive means 30% to 80%; inactive means below 30%; also: 0% is about no effect
Target sequence (Q8NER1 whole entry, looked up): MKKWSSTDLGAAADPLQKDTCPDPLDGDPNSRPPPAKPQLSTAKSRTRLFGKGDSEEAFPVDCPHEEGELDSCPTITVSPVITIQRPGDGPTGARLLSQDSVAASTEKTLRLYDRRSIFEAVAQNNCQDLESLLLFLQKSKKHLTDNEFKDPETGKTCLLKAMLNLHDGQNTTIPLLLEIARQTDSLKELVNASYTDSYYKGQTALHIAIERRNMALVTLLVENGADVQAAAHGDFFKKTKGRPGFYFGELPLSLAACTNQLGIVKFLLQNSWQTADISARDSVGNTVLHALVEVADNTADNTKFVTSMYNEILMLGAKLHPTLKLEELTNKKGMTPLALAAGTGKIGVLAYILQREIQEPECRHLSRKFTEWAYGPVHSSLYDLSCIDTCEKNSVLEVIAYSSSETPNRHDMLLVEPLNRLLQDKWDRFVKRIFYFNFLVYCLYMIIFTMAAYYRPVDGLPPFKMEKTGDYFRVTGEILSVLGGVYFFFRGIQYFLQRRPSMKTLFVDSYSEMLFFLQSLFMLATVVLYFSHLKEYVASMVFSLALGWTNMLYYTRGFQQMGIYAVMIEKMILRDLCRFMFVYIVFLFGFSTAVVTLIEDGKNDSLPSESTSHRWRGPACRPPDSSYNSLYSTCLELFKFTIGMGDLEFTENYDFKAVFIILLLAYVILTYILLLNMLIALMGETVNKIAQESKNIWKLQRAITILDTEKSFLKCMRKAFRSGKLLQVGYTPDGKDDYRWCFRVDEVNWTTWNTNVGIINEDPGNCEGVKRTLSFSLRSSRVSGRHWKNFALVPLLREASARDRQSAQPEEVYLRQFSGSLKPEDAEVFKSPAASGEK
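Cells expressing TRPV1 were dye-loaded with Fluo-8 and read kinetically: 10 s baseline, 3 min after compound (agonist portion), then 2 min after EC20 capsaicin (allosteric enhancer portion). Calcium-bound dye fluorescence at 480/520 nm.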
TRPML1 blocker – inhibitors of human TRPML1 channel | Q9GZU1 | TRPML1-inducible cells, Ca2+ dye fluorescence, FDSS; hits give low values; inhibition of EC80 agonist-evoked calcium signal | activity change, negative = inhibition, % (no concentration beside the values) | actives 0.02% (n = 390,000); in the data active means activity change below about -50%; inconclusive means about -30% to -50%; inactive means above about -30%;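 also: stimulus is agonist 54-4 at its EC80 concentration; % is scaled to controls: 0 for no effect and ±100 for the full control effect; compound concentration not given in the record; the text of the record puts the active cut at -80%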
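Tet-induced TRPML1-DL cells loaded with Ca8 no-wash calcium dye were read kinetically on FDSS. Compound addition was followed by EC80 agonist 54-4 (4 uM final); inhibition was read over 110 s.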
Six1-Eya2 blk – blocks human Six1 binding to Eya2. AlphaScreen GST-Six1/His-Eya2 binding, biochemical; hits give low values; control for the full effect not named in the record. actives 0.56% (n = 360,000). activity change, % (no concentration beside the values); in the data active = activity change below about -65%; inconclusive = about -30% to -65%; inactive = above about -30%; also: % is scaled to controls: 0 for no effect and ±100 for the full control effect; compound concentration not given in the record
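AlphaScreen with GST-Six1 and His-Eya2 (5X mix: 250 nM and 500 nM), glutathione donor and nickel acceptor beads; buffer 50 mM Tris pH 8.0, 300 mM NaCl, 1 mM TCEP; 1 h at 37 C in the dark.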
CtBP-E1A inh – inhibitors of CtBP/E1A interaction. AlphaScreen GST-E1A/His-CtBP binding, 1536-well; hits give low values; control for the full effect not named in the record. activity change, % (concentration not given with the values). actives 0.49% (n = 340,000). AID 651724; in the data active means activity change below about -65%; inconclusive means about -30% to -65%; inactive means above about -30%; also: % is scaled to controls: 0 for no effect and ±100 for the full control effect
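AlphaScreen with 125 nM GST-E1A and 125 nM His-CtBP (5X stocks) in Tris pH 8.0, 300 mM NaCl, BSA, Tween 20, TCEP. Compounds preincubated 2 h at 37 deg C, then glutathione donor/nickel acceptor beads added for 1 h at 37 deg C in dark.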
TRPML1 agonist – human mucolipin-1 channel agonism. actives 0.12% (n = 410,000). activation, % (no concentration beside the values). TRPML1-expressing cells, Ca2+ dye fluorescence, FDSS; host cell line not named in the record; reference of the full effect not given here; in the data active = activation above about 50%; inconclusive = about 30% to 50%; inactive = below about 30%; also: 0% is about no effect; the text of the record puts the active cut at 80%
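Cells: TRPML1-DL, 1X Tet inducer, ~16 h at 37 degrees C/5% CO2. Dye: ABD Ca8 no-wash + quencher, 45-90 min RT. Read: 10 s baseline, compound add, 110 s agonist phase; 54-4 EC80 (4uM final), 110 s antagonist phase.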
D2 PAM – human D2 receptor positive allosteric modulation. P14416. DiscoveRx D2 beta-arrestin cells, luminescence, 90 min; 100% = 57 uM dopamine signal. potentiation, % (no concentration beside the values). actives 0.23% (n = 360,000); active = potentiation of 50% or more; inconclusive = 30% to 50%; inactive = 30% or less;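 also: compound concentration not given in the record; tested on top of an EC20 dose of dopamine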
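PathHunter D2 cells, attached overnight at 37 deg C, received compound in DMSO plus dopamine at EC20 (50 nM final) for 90 min at 37 deg C. Beta-arrestin recruitment was read as luminescence after 1 h with detection reagent at ambient temperature.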
Active calls of the source: *; ? = inconclusive; . = not tested or not shown.

mol | TRPV1 potentiator | TRPML1 blocker | Six1-Eya2 blk | CtBP-E1A inh | TRPML1 agonist | D2 PAM
CCN(C(=O)Cn1c(=O)oc2ccccc21)c1cccc(C)c1 | -6 | -11 | 7 | 4 | 0.9 | -2
O=C(NC1=NCCS1)c1ccc([N+](=O)[O-])cc1Cl | 2 | -9 | -4 | 0 | -0.2 | 21
COCc1cc(C)nc(SCC(=O)NCc2ccco2)c1C#N | -10 | 3 | -3 | -4 | -0.7 | -9
C[C@@H]1CN([C@@H](C)CO)C(=O)CCCn2nncc2CO[C@H]1CN(C)Cc1ccc(-c2ccccc2)cc1 | . | 9 | 6 | 6 | -0.6 | -4
CCCNCc1cc(OC)c(OCc2ccccc2)cc1Br | 9 | 24 | -4 | 0 | -1.2 | -11
Cc1ccc(Nc2nc(N)nc(CSc3nccn3C)n2)c(C)c1 | -12 | -5 | 10 | 0 | -0.4 | 8
COc1ccc(C(=O)NCCc2ccc(S(N)(=O)=O)cc2)cc1OC | 3 | 3 | 2 | -10 | 1.4 | -7
CC(On1nnc2ccc(S(=O)(=O)N3CCOCC3)cc21)C(=O)Nc1ccccc1F (centres undefined) | 7 | 18 | -1 | -2 | 2.1 | -8
CCCCN1C(=O)CCC(C(=O)O)C1c1ccc([N+](=O)[O-])cc1 (centres undefined) | -12 | -4 | 8 | 1 | 0.0 | -8
Cc1cc(NC(=O)CSc2ccc(-c3ccccc3)nn2)no1 | 0 | 35 | -2 | -17 | 1.6 | -11
CCN(CC)S(=O)(=O)c1ccc(NC(=O)c2cc(=O)[nH]c3ccccc23)cc1 | -3 | -10 | 0 | 3 | -0.4 | 1
Cc1ccc(NC(=O)c2ccc(OC(=O)COc3cccc(Cl)c3)cc2)cc1 | -14 | -2 | -1 | 8 | 0.7 | -6
CNC(=O)c1ccc(N(Cc2ccccc2C)S(C)(=O)=O)cc1 | -1 | -6 | 17 | 1 | 0.4 | 3
COc1ccc(-c2nc3cc(C)c(Br)c(C)n3c2Cc2ccccc2C(F)(F)F)cc1OC | . | . | -4 | 2 | 0.3 | .
Cc1ccc(CN2CCN(Cc3cnc(N(C)C)s3)CC2CCO)o1 (centres undefined) | -6 | -7 | 5 | 2 | -0.2 | -13
CCOC(=O)c1cnc(-c2ccccc2)nc1C(F)(F)F | -1 | 6 | 32 | 10 | -0.9 | -16
CC(C)COC(=O)C(C#N)c1nc2ccccc2nc1N1CCN(Cc2ccc3c(c2)OCO3)CC1 (centres undefined) | -14 | 5 | 0 | 4 | 0.2 | -23
CC(=O)Nc1ccc(N2CCCCC2)cc1 | 7 | -2 | 0 | -7 | -0.1 | 4
Cc1nc(C)c(CCNC(=O)c2ccccc2)s1 | 3 | 30 | 1 | -9 | 0.8 | -11
CSCCC(NC(=O)c1ccco1)C(=O)N1CCC(C(N)=O)CC1 (centres undefined) | 2 | -5 | 8 | -4 | -0.1 | -3

Continuation.
mol | TRPV1 potentiator | TRPML1 blocker | Six1-Eya2 blk | CtBP-E1A inh | TRPML1 agonist | D2 PAM
CC1CC[C@@]2(OC1)O[C@H]1CC3[C@@H]4C[C@@H](O)[C@@]5(O)C[C@@H](O)[C@H](O)C[C@]5(C)[C@H]4CC[C@]3(C)[C@H]1[C@@H]2C (some centres undefined) | 1 | 45 | 4 | 3 | -0.1 | -6
O=S(=O)(NCc1cccs1)NCc1ccccc1F | -14 | 11 | -1 | 3 | 0.0 | -6
Cc1ccc[n+](CC(=O)c2ccc(NC(=O)c3ccccc3)cc2)c1 | 2 | 1 | -1 | -3 | 0.0 | -16
Cc1ccc(CN(C)C(=O)c2cccc(S(=O)(=O)N3CCc4ccccc43)c2)cc1 | . | 13 | -21 | -2 | 1.0 | -5
O=C1CCc2cc(NS(=O)(=O)c3ccc(F)cc3)cc3c2N1CCC3 | -3 | -16 | -15 | -8 | 0.2 | -3
O=C(CN1CCCCC1)Nc1cc(Cl)ccc1Oc1ccccc1 | 0 | 10 | 16 | -2 | 0.9 | -22
CCCn1c(CCNc2nc(-c3cccc(Br)c3)cs2)nc2ccccc21 | . | -5 | -2 | -4 | 0.8 | .
C/C(=N\NS(=O)(=O)c1ccc(C)c([N+](=O)[O-])c1)c1cccs1 | 12 | 15 | -9 | -3 | 3.1 | -7
COc1ccc(NS(=O)(=O)c2ccc(F)c(F)c2F)cc1S(=O)(=O)N1CCOCC1 | 6 | 8 | 3 | 8 | 0.9 | -2
CCOC(=O)NC(=S)Nc1ccc(C(C)(C)C)cc1 | -8 | -2 | 14 | 11 | 2.2 | -11
CCOC(=O)c1c(-c2ccc(C)cc2)csc1NC(=O)/C(C#N)=C/c1ccc(O)c(OC)c1 | -3 | -23 | 6 | 1 | 8.7 | -5
O=C1Nc2cc(C(=O)N3CCOCC3)ccc2S/C1=C\c1ccccc1 | ? | -7 | -2 | . | -1.4 | -10
CCOC(=O)C(C)Sc1nnc(-c2c[nH]c3ccccc23)n1C (centres undefined) | . | 11 | 1 | -7 | 0.0 | -2
COCCN(CCOC)C(=O)c1ccc(SCc2ccc(C)cc2)c([N+](=O)[O-])c1 | 5 | 34 | 10 | 7 | -0.8 | -12
O=C(CCN1CCCCC1)NCNC(=O)CCN1CCCCC1 | -8 | -7 | 2 | -1 | 0.1 | 8
COc1ccc(C(=O)Nc2ccc3c(c2)OCCO3)cc1Br | -8 | 16 | -8 | 7 | -0.1 | -1
CC1CN(C(=O)CNC(=O)Cc2cccc3ccccc23)CC(C)O1 (centres undefined) | 7 | 7 | 5 | 7 | 0.2 | 0
CCOC(=O)C1CCN(C(=O)COC(=O)CN(C)S(=O)(=O)c2ccc(NC(C)=O)cc2)CC1 | . | 16 | -8 | 13 | -0.5 | -9
CCC(C)Sc1cccc(-c2nc3ccc(Cl)cn3c2NCc2ccccc2)c1 (centres undefined) | 27 | 70 | 31 | 22 | 0.3 | -8
COC(=O)c1c(C)c(C)nc(N)c1C#N | -2 | 3 | 3 | 4 | -0.7 | -7

(cont.)
| Molecule | TRPV1 potentiator | TRPML1 blocker | Six1-Eya2 blk | CtBP-E1A inh | TRPML1 agonist | D2 PAM |
| --- | --- | --- | --- | --- | --- | --- |
| O=C(NCc1cn2ccccc2n1)c1ccc(Br)o1 | 20 | -7 | -2 | -3 | -0.4 | -7 |
| O=[N+]([O-])c1cccc2c(S(=O)(=O)N3CCCCC3)cccc12 | -3 | -6 | -26 | -27 | 0.7 | 1 |
| COCCn1c(-c2ccsc2)nc2c1c(=O)[nH]c(=O)n2CC(C)C | -7 | 5 | -3 | 2 | -1.1 | -7 |
| COc1ccccc1-n1cnnc1SCC(=O)c1c[nH]c2ccccc12 | -15 | -3 | 2 | 1 | 2.4 | 2 |
| CC(C)Oc1ccc(CN2CCC2(C)C(=O)NCc2cccc3ccccc23)cc1 (centres undefined) | . | 41 | -7 | -4 | 0.7 | -17 |
| Cc1sc2ncn(CC(=O)NCCCC(=O)N3CCC(C)CC3)c(=O)c2c1C | -5 | 6 | 0 | 14 | -1.0 | -5 |
| C=CCNC(=O)C(C)N1c2cccc3cccc(c23)S1(=O)=O (centres undefined) | -3 | 17 | 8 | 13 | -0.4 | -10 |
| COc1ccc(OC)c(CN2C(=O)c3ccccc3C2C(=O)NCC2CCCO2)c1 (centres undefined) | -4 | -12 | 0 | 7 | 0.7 | -5 |

Quoted at random: 7 records from the list
| Molecule | TRPV1 potentiator | TRPML1 blocker | Six1-Eya2 blk | CtBP-E1A inh | TRPML1 agonist | D2 PAM |
| --- | --- | --- | --- | --- | --- | --- |
| Cc1sc2ncn(CC(=O)NCCCC(=O)N3CCC(C)CC3)c(=O)c2c1C | -5 | 6 | 0 | 14 | -1.0 | -5 |
| O=[N+]([O-])c1cccc2c(S(=O)(=O)N3CCCCC3)cccc12 | -3 | -6 | -26 | -27 | 0.7 | 1 |
| COc1ccc(OC)c(CN2C(=O)c3ccccc3C2C(=O)NCC2CCCO2)c1 (centres undefined) | -4 | -12 | 0 | 7 | 0.7 | -5 |
| CC(C)Oc1ccc(CN2CCC2(C)C(=O)NCc2cccc3ccccc23)cc1 (centres undefined) | . | 41 | -7 | -4 | 0.7 | -17 |
| O=C(NCc1cn2ccccc2n1)c1ccc(Br)o1 | 20 | -7 | -2 | -3 | -0.4 | -7 |
| COc1ccccc1-n1cnnc1SCC(=O)c1c[nH]c2ccccc12 | -15 | -3 | 2 | 1 | 2.4 | 2 |
| COCCn1c(-c2ccsc2)nc2c1c(=O)[nH]c(=O)n2CC(C)C | -7 | 5 | -3 | 2 | -1.1 | -7 |

(next part)
| Molecule | TRPV1 potentiator | TRPML1 blocker | Six1-Eya2 blk | CtBP-E1A inh | TRPML1 agonist | D2 PAM |
| --- | --- | --- | --- | --- | --- | --- |
| COC(=O)c1ccccc1NC(=O)CSc1nc2c(c(=O)[nH]1)CCC2 | 20 | 12 | 6 | 12 | -0.1 | 7 |
| CCN(c1ccc(NC(=O)COC(=O)c2ccc([N+](=O)[O-])o2)cc1)C(C)C | -4 | 15 | -1 | -2 | -0.4 | ? |
| CNS(=O)(=O)c1cccc(C(=O)OCC(=O)Nc2ccc(Cl)cc2F)c1 | 8 | -9 | 1 | 5 | 1.7 | -2 |
| CCOc1ccc(C(=O)Nc2cccc(SC)c2)cc1 | -5 | -4 | -6 | -3 | 1.9 | -9 |
| Cc1ccc(S(=O)(=O)NCC2CCC(C(=O)NCc3cccs3)CC2)cc1 (centres undefined) | 1 | -16 | 3 | . | 0.6 | -6 |
| O=S(=O)(c1ccc(Oc2ccc(Cl)cc2)c(S(=O)(=O)N2CCCCC2)c1)N1CCCCC1 | 0 | 6 | 2 | 1 | 0.1 | 2 |
| COc1ccc(CN2CCN(S(=O)(=O)c3ccccc3)CC2)cc1Br | -1 | -10 | 0 | 7 | 1.5 | -1 |
| O=C1NC(=O)c2cc(Oc3ccc([N+](=O)[O-])cc3)ccc21 | 0 | 3 | -6 | . | -1.1 | -3 |

Carrying on:
| Molecule | TRPV1 potentiator | TRPML1 blocker | Six1-Eya2 blk | CtBP-E1A inh | TRPML1 agonist | D2 PAM |
| --- | --- | --- | --- | --- | --- | --- |
| Cc1ccc(-n2c(N)c(C(=O)Nc3c(C)n(C)n(-c4ccccc4)c3=O)c3nc4ccccc4nc32)cc1 | -3 | 5 | 2 | -8 | -0.2 | -3 |
| Cc1ccc2nc(CCl)[n+]([O-])c(-c3ccccc3)c2c1 | 13 | 11 | -1 | 12 | 1.0 | 3 |
| O=C(CCN1C(=O)S/C(=C\c2ccc(F)cc2)C1=O)Nc1ccc(C(=O)O)c(O)c1 | -8 | 4 | -12 | . | 0.8 | -3 |
| C[C@@H]1CCCCO[C@H](CN(C)C(=O)Nc2ccc(C(F)(F)F)cc2)[C@@H](C)CN([C@H](C)CO)C(=O)c2cc(NC(=O)Nc3ccc4c(c3)OCO4)ccc2O1 | . | . | -9 | ? | 0.1 | -9 |
| C#CCn1cc(C=C2C(=O)c3ccccc3C2=O)c2ccccc21 | 0 | -11 | 16 | . | 5.2 | 2 |
| Cc1cc(C)c2c(=O)[nH]c(SCC(=O)Nc3ccc(Br)cc3)nc2n1 | 13 | -8 | 7 | -17 | 2.1 | -3 |

Bioassay records deposited in PubChem by National Center for Advancing Translational Sciences (NCATS).
